MgrA DNA FP: S. aureus MgrA-DNA binding modulation; 0.13% of 84,000 active; fluorescence polarization; AID 602314; inhibition, %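 (about 10 µg/mL by stock and volumes)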;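 active means above 50% in either of two replicates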;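 further: 0% = protein plus DNA without compound and 100% = DNA alone without protein; higher means less MgrA bound to DNA so lower polarization; one replicate is shown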
S aureus helic: S. aureus DNA helicase inhibition; purified S. aureus helicase, fluorescence unwinding assay; about half of the hits fall short of the stated cut; inhibition, %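 (tested at about 80 µM)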; 0.05% of 120,000 active; AID 485395;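 active means both duplicates at 50% or more, or one of them with a favoured structure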;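 further: 0% = mean of negative control wells and 100% = mean of positive control wells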
Starred values were filed as active, the others as inactive; · = no result given; & = joins results of further samples. This is a subset (hit frequency here may not be typical).

A first look, 4 compounds:
SMILES	MgrA DNA FP	S aureus helic
CCOc1cc(C(=O)O)ccc1OCCOc1ccccc1	·	13
CC1CCCN(C2CCN(Cc3ccccc3Cl)CC2)C1 (stereo unspecified)	2.8	4
O=C(CSc1nc2ccccc2[nH]1)Nc1ccccc1Br	1.1	-12
Cc1cc2nc(SCCOC(=O)CN3C(=O)c4ccccc4C3=O)nc(C)c2cc1C	·	2

The whole of this part, from the first entry:
SMILES	MgrA DNA FP	S aureus helic
CCOc1cc(C(=O)O)ccc1OCCOc1ccccc1	·	13
CC1CCCN(C2CCN(Cc3ccccc3Cl)CC2)C1 (stereo unspecified)	2.8	4
O=C(CSc1nc2ccccc2[nH]1)Nc1ccccc1Br	1.1	-12
Cc1cc2nc(SCCOC(=O)CN3C(=O)c4ccccc4C3=O)nc(C)c2cc1C	·	2
CC1=NNC(=O)C1C(c1ccccc1)C1C(=O)NN=C1C (stereo unspecified)	0.0	-1
CC1CCCCN1C(=O)CCS(=O)(=O)Cc1ccccc1 (stereo unspecified)	-4.1	7
O=C(O)CCc1nc2ccccc2c(=O)n1Cc1ccc2c(c1)OCO2	·	-18
S=c1[nH]nc(NCCCN2CCOCC2)s1	·	12
COCC(C)n1c(C)cc(C(=O)COC(=O)c2c(OC)cccc2OC)c1C (stereo unspecified)	·	15
O=C(Cn1ccccc1=O)c1ccc(Cl)cc1	·	14
c1ccc(NCc2ccco2)cc1	·	9
O=C(CSc1nc2ccccc2o1)Nc1ccc(Oc2ccccc2)cc1	4.6	13
N#C/C(=C\c1ccc(F)cc1)c1c[nH]c2ccccc12	-3.2	·
O=C(c1ccccc1)c1ccccc1C(=O)N1CCCC1	0.0	9
CCS(=O)(=O)N1CCN(c2ccc(C)cc2)C(C)C1 (stereo unspecified)	-2.2	1
Cc1cc(C)n2cc(CSc3nc4ccccc4[nH]3)nc2n1	·	-9
COC(=O)C1(O)CC(=O)c2ccccc2O1 (stereo unspecified)	-0.3	-2
O=c1oc2ccccc2cc1-c1ccc(Cl)cc1	-4.5	-18
COC(=O)c1sccc1NS(=O)(=O)c1ccc(C(=O)OC)n1C	-1.6	·
O=C1CCOc2ccc(Cl)cc21	·	8
COc1ccc(C)cc1NC(=O)c1c(C)nc2ccccn12	-1.4	17
CC(C)CCC(=O)Nc1ccc(S(=O)(=O)N2C(C)CCCC2C)cc1 (stereo unspecified)	·	-1
Cc1ccc(C2(C(F)(F)F)NC(=O)N3CCN=C3S2)cc1 (stereo unspecified)	·	-1
COc1ccc(C(=S)NCC2CCCO2)cc1 (stereo unspecified)	28	17
O=C(Nc1ccccc1Oc1ccc(Cl)cc1Cl)c1c(F)cccc1F	-0.3	·
COc1ccc(CC2SC(=Nc3ccc(Cl)cc3)NC2=O)cc1 (stereo unspecified)	1.3	·
COc1ccc(C)cc1S(=O)(=O)Nc1ccccc1	2.1	8
Nc1ccccc1-c1nnc(-c2ccc(Cl)c(Cl)c2)o1	0.2	·
CCc1cc(C(=O)NCCN(C)C)cs1	3.5	14
CCOC(=O)c1sc(N)c(C#N)c1COC(=O)C12CC3CC(CC(O)(C3)C1)C2	·	-236
COc1ccccc1N1C(=O)C2C3C=CC(O3)C2C1=O (stereo unspecified)	-6.2	·
Cn1cnc2c1c(=S)[nH]c(=O)n2Cc1ccccc1	0.9	7
CC1(C)Cc2snc(C(N)=O)c2C1	-1.4	-8
NC(=O)c1ccccc1NC(=O)CC(c1ccccc1)c1ccccc1	-1.0	8
CCOC(=O)CNc1nnc(SCC(=O)OCC)[nH]c1=O	-0.2	5
Cc1ccc(NC(=S)Nc2ccccc2C)c(C)c1	-2.2	·
O=C(CNCc1ccco1)Nc1ccccc1C(=O)c1ccccc1	·	8
Cc1noc(-c2ccc3c(c2)OCO3)c1I	1.2	9
O=C(OC1CCCCC1)c1nsc(Cl)c1Cl	-1.1	8
CC(C(=O)NCC1CCCCC1)N1CCN(S(=O)(=O)c2ccccc2F)CC1 (stereo unspecified)	·	-5
COc1ccc2oc(COc3ccccc3)c(C(=O)O)c2c1	·	3
Cc1ccc(CN(C)C(=O)CCN2c3ccccc3Sc3ccccc32)o1	·	17
COC(=O)c1ccc(-c2ccco2)n1Cc1ccccc1	-1.7	-4
NC1=NC(=O)C(CC(=S)Nc2ccc(N3CCCCC3)cc2)S1 (stereo unspecified)	·	-4
CN(C)c1nc(N)nc(N(c2ccccc2)c2ccccc2)n1	·	2

Arranged by value in MgrA DNA FP (smallest number first): 3 from the list above
SMILES	MgrA DNA FP	S aureus helic
COc1ccccc1N1C(=O)C2C3C=CC(O3)C2C1=O (stereo unspecified)	-6.2	·
O=C(OC1CCCCC1)c1nsc(Cl)c1Cl	-1.1	8
CCOC(=O)CNc1nnc(SCC(=O)OCC)[nH]c1=O	-0.2	5

Next section
SMILES	MgrA DNA FP	S aureus helic
CC(=O)OC(C(=O)Nc1nccs1)c1ccccc1 (stereo unspecified)	·	14
O=C(O)CCC(=O)Nc1cccc(F)c1	-1.5	·
COc1nnc(Cl)c2ccccc12	·	11
O=C1NC(c2ccccc2)Oc2ccccc21 (stereo unspecified)	3.4	-16
C#C[C@]1(O)CCC2C3CCc4cc(Oc5ccc([N+](=O)[O-])cc5)ccc4C3CCC21C (stereo partly specified)	-0.9	·
Cc1ccc(/C=N/c2sc3c(c2C(N)=O)CCC3)s1	0.0	-15
COc1ccc(NC(=O)Cc2c(C(=O)O)[nH]c3ccccc23)c(OC)c1	·	7
COC(=O)c1cc2c(cc1NC(=O)c1cccc3c1SCCC3=O)OCO2	·	-20
Cc1ccc(-c2noc(CN(C(C)C)S(=O)(=O)c3ccc(F)cc3)n2)cc1	-3.0	17
O=C(O)CCCC(=O)Nc1ccc(C(=O)O)cc1	·	-16
O=C(NCCc1ccccc1)c1ccc2nc(-c3cccs3)c(-c3cccs3)nc2c1	-0.5	2
Cc1ccc2[nH]c(=O)cc(C(=O)O)c2c1	1.1	-2
Cc1cc(NC(=O)c2cc(-c3ccc4c(c3)OCO4)on2)no1	·	12
CCOC(OCC)c1ccc(/C=C(\C#N)S(=O)(=O)c2ccccn2)cc1	0.4	·
c1ccc(-c2noc(CSc3nnc(-c4ccco4)n3-c3ccccc3)n2)cc1	1.4	17
CC(=O)NCc1ccc(S(=O)(=O)NC2CCN(Cc3ccccc3)CC2)cc1	·	-14
O=C(O)Cc1coc2ccc3ccccc3c12	·	-2
O=C(/C=C/c1ccccc1)Oc1ccc2oc(=O)sc2c1	1.2	16
CCC(C)NC(=O)C1CCCN(S(=O)(=O)c2ccc(C)c(Cl)c2)C1 (stereo unspecified)	-0.2	0
O=S1(=O)NC(=NCc2ccccc2)c2ccccc21	·	0
O=c1c2c(nc(NCCO)n1Cc1ccccc1)-c1ccccc1CC21CCCCC1	1.6	-1
Cc1cccc(OCc2nnc(SC(C)C(=O)c3c(C)[nH]c4ccccc34)o2)c1 (stereo unspecified)	·	-13
Cc1noc(C)c1-c1nc(-c2cccc(C(F)(F)F)c2)no1	-0.6	·
Cc1cccc(CS(=O)(=O)Cc2ccc(C(=O)NCc3cccs3)o2)c1	·	2
Clc1cccc(Nc2nc3ccccc3c3nncn23)c1	·	-14
CSc1n[nH]c(N)c1C#N	-1.6	4
CC(C(=O)NCC1CCCO1)N(C(=O)c1snc(C(N)=O)c1N)c1cccc(F)c1 (stereo unspecified)	-3.1	13
CCOC(=O)CSC(=O)c1c(-c2c(Cl)cccc2Cl)noc1C	-1.0	·
COC(=O)c1cc(S(=O)(=O)NCCN2CCN(c3ccccc3F)CC2)c[nH]1	·	-23
CCCNS(=O)(=O)c1cccc(C(=O)N2CCN(c3cccc(OC)c3)CC2)c1	·	-9
O=C(c1ccccc1)c1ccc2c(c1)Cc1ccccc1-2	-1.0	·
CC(=O)NS(=O)(=O)c1ccc(Br)cc1	0.1	10
COC(=O)c1ccc2c(=O)n(CCC3=CCCCC3)c(SCc3ccc(Cl)cc3)nc2c1	0.4	1
Cc1c(C(N)=O)cc([N+](=O)[O-])cc1[N+](=O)[O-]	1.4	·
CCc1cccc2c(C=C(C#N)C#N)cn(CC(=O)NC3CCCC3)c12	-1.4	8
Cc1cccn2c(=O)c(/C=C3\SC(=S)NC3=O)c(NCC3CCCO3)nc12 (stereo unspecified)	·	-45
COC(=O)c1sccc1NS(=O)(=O)c1cc(C(F)(F)F)cc(C(F)(F)F)c1	-2.8	·
Nc1ccc2nc(SCC(=O)NCCOc3ccc(Cl)cc3)sc2c1	-0.7	·
CC(=O)c1ccc2c(c1)C1C=CCC1C(c1ccc(Cl)cc1Cl)N2 (stereo unspecified)	3.5	·
COc1ccc(N(C)C(=O)CCS(=O)(=O)c2cccc3nonc23)cc1	·	26
Fc1ccc(N2CCN(C3=Cc4ccccc4CC3)CC2)cc1	-0.3	·
CN1CCCNc2nc3ccccc3nc21	·	8
CC(C)(C)c1ccc(C(=O)Nc2ccc(S(N)(=O)=O)cc2)cc1	6.9	-18
CN1c2ccc(Cl)cc2C(=O)NC1C1CC=CCC1 (stereo unspecified)	-0.8	·
CC(C)(C)c1cc(NC(=O)c2nn3c(C(F)(F)F)cc(-c4ccccc4)nc3c2Br)no1	·	6
O=C(Nc1nncs1)Oc1ccccc1	-1.8	7
O=C(COc1ccc(Cl)c2cccnc12)c1ccc2c(c1)OCCO2	·	-14
COc1cccc(/C=C2/NC(=O)N(Cc3ccc(F)cc3)C2=O)c1	2.2	-10
c1ccc2c(OCc3nc4ccccc4[nH]3)cccc2c1	0.2	12
O=C(NC1CCCC1)C1CCN(Cc2cnn(-c3ccccc3)c2-n2cccc2)CC1	·	-6
Brc1cccc(-c2cn3nc(C4CC4)sc3n2)c1	·	29
Cc1ccc(NC(=O)CN=C2NC(C)(C)Cc3ccccc32)cc1	32	10
Cn1c(=O)c2c(nc(NCCOCCO)n2Cc2ccc(Cl)cc2Cl)n(C)c1=O	0.4	·
CCc1ccc(-c2csc3nc4ccccc4n23)cc1	·	3
COC(=O)c1c(N)cccc1F	-1.8	·
CC(C)CN(CC(C)C)Cn1nc(C2COc3ccccc3O2)oc1=S (stereo unspecified)	·	-12
O=C(NCc1noc2ccccc12)Nc1nccs1	0.0	16
Cn1cccc1Cc1nnc(SCC(N)=O)n1C	·	7
COC(=O)c1[nH]c(Cn2cc(S(=O)(=O)N3CCCC3)ccc2=O)c(C(=O)OC)c1C	·	-8
CCN(CC)C(C)CN1c2ccccc2Sc2ccccc21 (stereo unspecified)	1.6&4.2	·
Next results:
SMILES	MgrA DNA FP	S aureus helic
CC(OC(=O)CSc1nnc(-c2ccccc2)n1-c1ccccc1)C(=O)Nc1ccccc1C#N (stereo unspecified)	·	-14
COc1cc(/C=C2/C(=O)NN(c3ccc(Cl)cc3)C2=O)ccc1OC(=O)c1ccco1	0.9	10
COc1ccc(Br)cc1S(=O)(=O)NCc1ccccc1	·	1
CCn1c(C)nc2cc(C(=O)N/N=C/c3ccccc3)ccc21	·	5
CN=c1scc(C)n1/N=C/c1ccc(O)cc1	·	14
O[C@@H]1[C@@H](O)[C@H](Nc2ccccc2)OC[C@H]1O	2.2	2
Cn1c(=O)c2c(c3ccccc31)OC(=O)CC2c1cccnc1 (stereo unspecified)	·	-1
O=C(O)c1cc2oc3ccccc3c3ccccc3oc2cc1C(=O)Nc1ccc(F)cc1	3.3	13
CC1(C)CC2(C)OC(=O)c3ccccc3N2C(=S)N1 (stereo unspecified)	0.3	·
CN1CCC/C1=c1\c(=O)n(-c2ccccc2)n2c(-c3ccc(Cl)cc3)cnc12	·	-1
O=C(NCc1cc(F)cc2c1OCOC2)c1ccc2nonc2c1	0.8	·
CCCN(CCC)C(=O)c1ccc(NC(=O)C2=CNCCO2)cc1	·	-8
O=C1NCCc2c(OCC(=O)N3CCCC3)cccc21	·	9
CCCCNC(=O)Nn1c(=O)[nH]c2ccccc2c1=O	·	3
FC(F)(F)c1cc(-c2ccco2)nc2cc(-c3ccccc3)nn12	0.0	·
CCN1CCC(N(Cc2cccc(OC)c2)C(=O)NC23CC4CC(CC(C4)C2)C3)CC1	0.7	0
O=C(CN1CCOCC1)N1c2ccccc2Sc2ccc(Cl)cc21	·	18
CN(C)CCCN1C(=O)CSC1c1ccc(Cl)c(Cl)c1 (stereo unspecified)	·	-11
CN1C(c2ccccc2)CC(=O)C2(O)CCCCC12 (stereo unspecified)	-1.5	·
COC(=O)CC1Nc2ccccc2SC1=O (stereo unspecified)	·	22
CSc1cccc(NC(=O)c2ccc3snnc3c2)c1	5.7	11
COC(=O)c1cccc(N=Cc2cc(Cl)cc(Cl)c2O)c1C(=O)OC	0.5	·
Nc1ncc(-c2ccccc2)n1CC1CCCO1 (stereo unspecified)	-2.4	16
CCOc1ccc(CC2C(=O)NC(=O)N(Cc3ccccc3)C2=O)cc1 (stereo unspecified)	-5.4	13
Cc1oc(-c2ccccc2)nc1CC(=O)O	-1.1	·
COc1ccc(/C=C2/SC(=S)N(CCC(=O)O)C2=O)cc1	0.1	17
N#Cc1ccc(NC(=O)Nc2cccc3ccccc23)cc1	·	-9

2 compounds picked at random from those above, as already listed:
SMILES	MgrA DNA FP	S aureus helic
O=C(O)CCCC(=O)Nc1ccc(C(=O)O)cc1	·	-16
CN1C(c2ccccc2)CC(=O)C2(O)CCCCC12 (stereo unspecified)	-1.5	·

Quoted from the entries so far for reference:
SMILES	MgrA DNA FP	S aureus helic
CCN1CCC(N(Cc2cccc(OC)c2)C(=O)NC23CC4CC(CC(C4)C2)C3)CC1	0.7	0
O=C(CN1CCOCC1)N1c2ccccc2Sc2ccc(Cl)cc21	·	18
CN(C)CCCN1C(=O)CSC1c1ccc(Cl)c(Cl)c1 (stereo unspecified)	·	-11
CN1C(c2ccccc2)CC(=O)C2(O)CCCCC12 (stereo unspecified)	-1.5	·
COC(=O)CC1Nc2ccccc2SC1=O (stereo unspecified)	·	22
CSc1cccc(NC(=O)c2ccc3snnc3c2)c1	5.7	11

Screens as filed in PubChem.
